Source: PubChem (Broad Institute)
Beta cell apopt = inhibitors of cytokine-induced beta cell apoptosis, primary screen, luminescence. INS-1E cytokine-induced death, ATP luminescence, 48 h; percent of positive-control rescue, neutral wells zero. protection from apoptosis, % (no concentration beside the values). 300,000 compounds, 0.8% hits;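 active means all replicates at 75% or more, or half of them and the mean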;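 further: 0% = cytokine-treated negative control wells and 100% = positive control rescue; higher means more ATP so stronger rescue from cytokine killing; wells of about 40 µL received 100 nL stock; the first replicate is given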
T cruzi inh = inhibitors of intracellular T. cruzi growth, primary screen, luminescence, NIH3T3 host cells. T. cruzi beta-gal in NIH3T3, 90 h. inhibition, % (concentration not given with the values). 300,000 compounds, 1.4% hits;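 active means mean inhibition across valid replicates above about 55%, limit read from the data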;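 further: signal also drops with host cell toxicity which is not excluded here; 0% = plate median of DMSO wells and 100% = zero luminescence signal; higher percent means less beta-gal luminescence so fewer parasites; stock transfer was 50 nL into about 50 µL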
A1 inh = caspase 3/7 activation in MEF A1-2A-BIM cells, primary screen, A1 inhibitor project, cell-based, luminescence, HTS; Caspase-Glo 3/7 luminescence, 3 h; percent of clofoctol response, vehicle zero; caspase activation, % (concentration not given with the values); 330,000 compounds, 0.066% hits; AID 2462, 2010;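 active means over half of replicate activation scores above 10%, or exactly half above 10 with the replicate mean above 10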;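 further: wells of about 30 µL received 50 nL stock; many hits fall short of the cut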
* hit, by the source's call; & = joins results of further samples. Not all compounds are listed; rates above refer to the full screens.

SMILES | Beta cell apopt | T cruzi inh | A1 inh
CCCCCCCCCCOC(=O)Cn1c(COc2ccc(OC)cc2)[n+](C)c2ccccc21 | 114* | 29&50 | -0.5&-1.2
CCCc1n[nH]c2c1/C(=N\O)CCC2 | -1 | -1 | -0.3
CN(C)/C=N/C(=S)Nc1ccccc1F | -11 | -7 | -1.7
C/C(=N\NC(=O)CSCc1ccccc1Cl)c1cccc(NC(=O)c2ccccc2)c1 | 6 | 6 | 1.2
CCn1nc(C)c(/C=C2\CCCC3=C2OC(N)=C(C#N)C3c2c(C)nn(CC)c2C)c1C (centres undefined) | 7 | -7 | 0.0
O=C(N/N=C/c1ccncc1)c1cc2c(ccc3ccccc32)o1 | 4 | 25 | -0.2
COc1ccc(/C=N/Nc2cc(C)nc(-n3nc(C)cc3C)n2)cc1 | 90* | 44 | 0.2
C/C(=N\NC(=S)Nc1ccccc1C)c1ccc(O)cc1 | 5 | 12 | 0.7
COC(=O)c1scc(C)c1N/N=C(\C)c1cc(F)c(Cl)cc1F | -6 | -2 | 0.0
COc1cccc(C(=O)N/N=c2\sc3ccccc3n2C)c1 | -1 | -9 | -0.1
Cc1ccc2nc(NC(=O)C3CCCN(S(=O)(=O)c4cccc5nonc45)C3)sc2c1 (centres undefined) | 22 | 42 | -0.9
CC(=O)Nc1ccc(S(=O)(=O)/N=C2\SCCN2S(=O)(=O)c2ccc(NC(C)=O)cc2)cc1 | -6 | -6 | 1.3
CC(=O)OC(/C(O)=C(\C#N)c1nc2ccccc2[nH]1)c1ccccc1 (centres undefined) | 20 | 2 | -0.6
Cc1ccc(CSCC2Nc3ccc(C(=O)N4CCN(c5ccc(F)cc5)CC4)cc3NC2=O)cc1 (centres undefined) | -4 | -9 | 0.8
CC(C)c1ccc(/C=N/NC(=O)CN(c2cccc(Cl)c2Cl)S(C)(=O)=O)cc1 | 2 | 13 | -0.5

Structural class, the compounds so far containing an NH in an aromatic ring (2)
SMILES | Beta cell apopt | T cruzi inh | A1 inh
CCCc1n[nH]c2c1/C(=N\O)CCC2 | -1 | -1 | -0.3
CC(=O)OC(/C(O)=C(\C#N)c1nc2ccccc2[nH]1)c1ccccc1 (centres undefined) | 20 | 2 | -0.6

More entries:
SMILES | Beta cell apopt | T cruzi inh | A1 inh
CCN(CC)S(=O)(=O)c1cccc(C(=O)N/N=C/c2cc(OC)c(O)c(OC)c2)c1 | 1 | -2 | -0.2
C/C(=N\NC(=O)c1cccs1)C(C)(C)C | -5 | -2 | 0.2
Cc1nc(SC(C(=O)c2ccccc2)c2ccccc2)nc2ccccc12 (centres undefined) | 0 | 53 | -2.5
O=S(=O)(Nc1nc2ccccc2nc1Nc1ccc2c(c1)OCO2)c1ccc(F)cc1 | 27 | -35 | 0.4
C/C(=N\NC(=O)CSCc1ccc([N+](=O)[O-])cc1)c1ccccc1O | -14 | -9 | 0.4
Cc1ccc(OCC(=O)NC(=S)Nc2cccc(NC(=O)c3ccccc3)c2)cc1 | -7 | -1 | -0.8
CC(C)NC(=S)N/N=C1\CCCCC1C1CCCCC1 (centres undefined) | 12 | 18 | -0.4
Cc1cccc(C)c1N=C1SC(CC(=O)Nc2c(C)cccc2C)C(=O)N1CCc1ccccn1 (centres undefined) | -3 | 1 | 1.1
CCC/C(=N/NC(=O)c1csc(C)c1C)c1ccc(Cl)s1 | 4 | 10 | 0.8
CCc1ccc(S(=O)(=O)/N=C2\C=CC(=O)c3ccccc32)cc1 | 9 | 2 | 0.7
O=C(NC(CSCc1ccccc1)C(=O)N/N=C/c1ccc(O)cc1O)c1ccc([N+](=O)[O-])cc1 (centres undefined) | 78* | 26 | 1.1
O=C1CC(c2cc([N+](=O)[O-])ccc2Cl)c2c(ccc3ccccc23)N1 (centres undefined) | -2 | 36 | -0.8
CC/C(=N/NS(=O)(=O)c1ccc(Cl)cc1)c1ccc(O)cc1 | -17 | -8 | 0.0
O=C(COc1ccccc1C(=O)N/N=C\c1ccc(O)c(O)c1)N/N=C/c1ccc(O)c(O)c1 | -3 | -30 | 0.7
CCN(Cc1ccccc1)c1ccc(/C=N/NS(=O)(=O)c2cccc([N+](=O)[O-])c2)cc1 | -10 | -4 | 1.2
Cc1cc2c(N)cccc2nn1 | -8 | 8 | -0.3
COc1cc(/C=N/NC(=O)CCC(=O)Nc2ccc(C)cc2)ccc1O | -12 | 9 | 0.1
COc1cccc(/C=N/NC(=O)CCCC(=O)Nc2ccc(Br)cc2)c1 | -3 | -2 | 0.1
Cc1ccc(C(=O)N/N=C\c2c(C)nn(-c3ccccc3)c2Cl)cn1 | -4 | -2 | -4.1
COc1ccc(NC(=O)CCl)cn1 | 5 | -8 | 0.9
Cc1cc(C)nc(SCC2COc3ccccc3O2)n1 (centres undefined) | 1 | -11 | 0.8
CCNC(=S)N/N=C/c1sccc1C | 0 | 44 | -0.8
O/N=C1\CCc2cc(Cl)ccc21 | -6 | -11 | 0.7
O=S1CC/C(=N\O)c2ccccc21 (centres undefined) | -1 | -19 | 1.1
CCCOc1ccc(N2C(=O)CC(N(CCc3ccc(OC)c(OC)c3)C(=S)Nc3ccccc3)C2=O)cc1 (centres undefined) | 48 | 64* | 0.1
CN(CCCCCC(=O)/C=N/O)Cc1ccccc1 | 1 | 11 | 0.4
O=C(CN1CCN(Cc2ccc(Cl)cc2)CC1)N/N=C/c1c[nH]c2ccccc12 | 1 | 7 | 0.4
O=S(=O)(N/N=C1/CCCc2ccccc21)c1ccc(Br)cc1 | 6 | 10 | -0.1
O=C1C2C3c4ccccc4C(c4ccccc43)C2C(=O)N1/N=C/c1cccc(O)c1 (centres undefined) | -1 | -13 | 0.0
COc1cc(C(=O)Oc2ccccc2/C=N/NC(=O)c2ccc(Cl)cc2Cl)cc(OC)c1OC | 92* | 10 | -1.3
Cc1c(/C=N/NC(=O)c2cc(=O)[nH]c(=O)[nH]2)c2ccccn2c1C(=O)c1ccccc1 | 1 | 14 | -0.2
O=C(N/N=C/c1ccccn1)c1cc(-c2ccncc2)nc2ccccc12 | 5 | -16 | 0.3
CCOCC(=O)Nc1c(C)n(C)n(-c2ccccc2)c1=O | -6 | -8 | 0.2
Cc1nc(NC(=O)c2ccccc2)sc1-c1csc(Nc2cccc(F)c2)n1 | 9 | 1 | -9.7
CCOc1cc(/C=N/Nc2ncnc(Cl)c2N)ccc1O | 7 | -8 | 0.2
Cc1ccc(/C=N/NC(=O)CSc2nc3ccccc3n2Cc2ccc(Cl)cc2)o1 | 5 | 33 | -0.3
O=C(CNC(=O)c1ccc2c(c1)OCCO2)N/N=C/c1ccc(O)cc1O | 11 | -9 | -0.3
COc1ccccc1OCCOc1ccccc1/C=N/n1cnnc1 | -3 | -15 | 0.0
CCOc1cc(/C=N\NC(=O)c2ccc(NC(=O)C(C)(C)C)cc2)ccc1OC(=O)c1cccc(C)c1 | 3 | 1 | -0.4
CO/N=C/NC(=O)c1ccc([N+](=O)[O-])c(CS(=O)(=O)c2ccc(Cl)cc2)c1 | 0 | 10 | -0.4
Cc1nc2nc(SCC(=O)c3cccc([N+](=O)[O-])c3)[nH]c2cc1Br | 10 | 5 | 0.0
CC(=O)OC[C@H]1O[C@@H](O/N=C/C[C@@H]2C=C[C@H](OC(C)=O)[C@@H](COC(C)=O)O2)[C@H](OC(C)=O)[C@@H](OC(C)=O)[C@@H]1OC(C)=O | 0 | -5 | -0.5
CC(=O)Nc1ccc(/C=N/NC(=O)c2cc3cc(C)ccc3nc2C)cc1 | 11 | -8 | -0.5
COc1ccc(C2C(C(C)=O)=C(C)Nc3ncnn32)cc1OC (centres undefined) | -3 | -2 | 2.1
CC(=O)SC(C[N+](=O)[O-])c1cn(C(C)=O)c2ccccc12 (centres undefined) | 2 | -12 | -0.2

Gathered by group: the entries above with two or more sulfur atoms
SMILES | Beta cell apopt | T cruzi inh | A1 inh
Cc1ccc2nc(NC(=O)C3CCCN(S(=O)(=O)c4cccc5nonc45)C3)sc2c1 (centres undefined) | 22 | 42 | -0.9
CC(=O)Nc1ccc(S(=O)(=O)/N=C2\SCCN2S(=O)(=O)c2ccc(NC(C)=O)cc2)cc1 | -6 | -6 | 1.3
CCC/C(=N/NC(=O)c1csc(C)c1C)c1ccc(Cl)s1 | 4 | 10 | 0.8
CCNC(=S)N/N=C/c1sccc1C | 0 | 44 | -0.8
Cc1nc(NC(=O)c2ccccc2)sc1-c1csc(Nc2cccc(F)c2)n1 | 9 | 1 | -9.7

Entries of single compounds, looked up by structure:
CCOc1cc(/C=N\NC(=O)c2ccc(NC(=O)C(C)(C)C)cc2)ccc1OC(=O)c1cccc(C)c1 as listed: Beta cell apopt: 3; T cruzi inh: 1; A1 inh: -0.4
CC(=O)Nc1ccc(/C=N/NC(=O)c2cc3cc(C)ccc3nc2C)cc1 as listed: Beta cell apopt: 11; T cruzi inh: -8; A1 inh: -0.5
CC(=O)OC[C@H]1O[C@@H](O/N=C/C[C@@H]2C=C[C@H](OC(C)=O)[C@@H](COC(C)=O)O2)[C@H](OC(C)=O)[C@@H](OC(C)=O)[C@@H]1OC(C)=O as listed: Beta cell apopt: 0; T cruzi inh: -5; A1 inh: -0.5

New compounds follow.
SMILES | Beta cell apopt | T cruzi inh | A1 inh
N#C/C(=N\Nc1c(Cl)cccc1Cl)C(=O)NN | -3 | 24 | -0.6
Oc1ccc(/C=N/NC(=S)NCC2CCCO2)cc1 (centres undefined) | -6 | -12 | 0.4
Cc1[nH]nc2nc3c(c(OC(=O)c4ccccc4)c12)c(=O)n(C)c(=O)n3C | -7 | -1 | -0.7
O=C(N/N=C/c1ccc(O)cc1)c1ccc(COc2cc(Cl)ccc2Cl)o1 | 6 | -2 | -0.2
CCC(CC)NC(=O)CO/N=C/c1ccccc1OC(F)F | -3 | 3 | 1.2
C=CCN1C(=O)C(Cc2ccccc2)S/C1=N/N=C/c1cccs1 (centres undefined) | 0 | 5 | -0.1
COc1ccc(/C=N/n2c(N)c(S(=O)(=O)c3cccs3)c3nc4ccccc4nc32)cc1OC | 5 | 41 | -0.4
Cc1cccc(N2CCN(C(=O)c3ccc4c(c3)NC(=O)C(CSCc3cccc(F)c3)N4)CC2)c1C (centres undefined) | -7 | 8 | 0.5
Cc1cc(N2CCN(c3ccccc3)CC2)n2nnnc2n1 | 5 | -7 | 2.1
C/C(=N\NC(=O)c1cc(-c2cccnc2)nc2ccccc12)c1ccc(O)cc1O | 90* | 47 | -0.3
Cc1ccc(S(=O)(=O)N2CCC(C(=O)N/N=C/c3ccccc3[N+](=O)[O-])CC2)cc1 | 2 | -14 | 1.5
O=C(N/N=C/c1cccs1)c1ccc2c(c1)OCO2 | 4 | -15 | -3.0
Cn1c(N/N=C/c2c[nH]c3ccccc23)nc2ccccc21 | 29 | 8 | 1.6
COc1ccc(/C=N/NC(=O)c2[nH]c3ccc(Br)cc3c2-c2ccccc2)cc1 | 69 | 6 | 1.2
Cc1ccsc1/C=N/NC(=O)c1sccc1C | -1 | -11 | -8.4
CC(C)(C)N1CCC1C(N)=O (centres undefined) | -6 | -23 | 0.7
Cc1nn(-c2ccccc2)c(N2CCCC2)c1/C=N/NC(=O)c1cc(-c2ccccn2)nc2ccccc12 | 7 | 4 | 0.1
O=C(/C=C/c1ccc([N+](=O)[O-])cc1)N1CCN(c2ccccc2F)CC1 | 1 | -6 | -0.4
S=c1[nH]nc(-c2ccco2)n1/N=C/c1ccccn1 | -10 | -8 | -0.6
O=S(=O)(Nc1ncccn1)c1ccc(NC(=S)Nc2cccc(Cl)c2)cc1 | 7 | -5 | 0.4
CC1N(O)C(c2ccc(Cl)cc2Cl)N(O)C1(C)C (centres undefined) | -5 | -12 | 1.3
CNc1nc(Nc2ccc(Br)cc2)nc(N)c1[N+](=O)[O-] | -3 | -2 | -6.1
Oc1ccc(O)c2c1C1c3ccccc3C2c2ccccc21 | -13 | 24 | 1.1
O=C(CCc1n[nH]c(=O)[nH]c1=O)N/N=C/c1ccco1 | -4 | 0 | 0.5
Oc1c(C=Nc2cccc3cccnc23)sc2ccccc12 | -1 | 55* | -8.5
Cc1nn(C)cc1/C=N/NC(=O)c1sc2ccccc2c1Cl | -4 | -5 | 0.5
Cn1c(=O)c2c(ncn2CC(=O)N/N=C/C(Cl)=C/c2ccccc2)n(C)c1=O | -3 | -9 | -1.2
CCCc1nc2ccccc2c(=O)n1/N=C/c1ccc(O)cc1O | -4 | -1 | 0.8
Cc1ccc(Nc2nc(-c3sc(NC(=O)c4cccc(Cl)c4)nc3C)cs2)cc1 | -1 | -25 | -4.4
O=C(N/N=C/c1ccc[nH]1)c1sc2ccccc2c1Cl | 28 | 69* | -1.8
Cc1ccc2c(c1)nc(NCCCO)n2C | 0 | 1 | 0.3
CNC(=O)COC(=O)c1ccc2c(c1)NC(=O)C1CCCN21 (centres undefined) | -4 | -1 | -0.1
